Screening results from PubChem BioAssay.
PKD1 inh: inhibitors of human PKD1 kinase. AID 797. actives 0.056% (n = 200,000). inhibition, %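 (about 10 µM by stock and volumes)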. PKD1 kinase fluorescence polarization assay. Q15139;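 active means inhibition of 50% or more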;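 further: controls were vehicle for no effect and a reference inhibitor for full effect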
HSV augment: HSV replication enhancement; HSV replication augmentation in cells, fold increase; maximum fold increase; actives 0.005% (n = 220,000); AID 1956;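 active means peak rise of 1.5-fold or more in the series; inconclusive means self-fluorescent or not available for retest; tested in PC3 cells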;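 further: first round at 10 µM; read as green reporter fluorescence; hits show the peak of a series up to 25 µM; 1 = signal of infected wells without compound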
GALR2 agonist: GALR2 (human) receptor agonism; O43603; GALR2-expressing cells, agonist activation read-out; activation, %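 (tested at 5 µM)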; actives 0.48% (n = 140,000); AID 803;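 active means above mean plus 3 SD of all compounds, about 5% in these data, not always enough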;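 further: 0% = vehicle buffer wells and 100% = reference agonist at full effect; tested in CHO reporter cells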
Target sequence (O43603 whole entry, looked up): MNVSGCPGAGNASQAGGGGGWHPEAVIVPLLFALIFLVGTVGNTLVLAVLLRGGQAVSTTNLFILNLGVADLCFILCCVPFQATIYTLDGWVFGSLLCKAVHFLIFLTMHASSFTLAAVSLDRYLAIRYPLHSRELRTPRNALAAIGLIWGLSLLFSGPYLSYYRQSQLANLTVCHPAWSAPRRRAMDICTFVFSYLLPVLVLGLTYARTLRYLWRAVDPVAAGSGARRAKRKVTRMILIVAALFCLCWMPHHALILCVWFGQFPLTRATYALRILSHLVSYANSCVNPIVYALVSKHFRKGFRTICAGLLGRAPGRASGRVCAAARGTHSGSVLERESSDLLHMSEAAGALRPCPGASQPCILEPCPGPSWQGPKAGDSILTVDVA
RGS16-Gao HTS: RGS16-Galphao interaction regulator (human); O15492+P09471; bead-based flow cytometry RGS16-Galphao binding, fluorescence; actives lie on both sides; binding response (% of control), % at 10 µM; actives 0.38% (n = 220,000);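 active means below 25% or above 175%, edge rows of some plates excepted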;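 further: Galphao activated by GDP with aluminum fluoride before binding; 100% = wells without compound and 0% = beads without RGS; some results beyond the cut were filed as inactive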
Target sequence (O15492 whole entry, looked up): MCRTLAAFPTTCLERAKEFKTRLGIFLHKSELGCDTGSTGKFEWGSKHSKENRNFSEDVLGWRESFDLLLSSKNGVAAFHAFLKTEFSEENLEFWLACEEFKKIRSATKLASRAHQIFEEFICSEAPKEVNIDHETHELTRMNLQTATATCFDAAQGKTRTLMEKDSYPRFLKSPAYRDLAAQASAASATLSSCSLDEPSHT
Target sequence (P09471 whole entry, looked up): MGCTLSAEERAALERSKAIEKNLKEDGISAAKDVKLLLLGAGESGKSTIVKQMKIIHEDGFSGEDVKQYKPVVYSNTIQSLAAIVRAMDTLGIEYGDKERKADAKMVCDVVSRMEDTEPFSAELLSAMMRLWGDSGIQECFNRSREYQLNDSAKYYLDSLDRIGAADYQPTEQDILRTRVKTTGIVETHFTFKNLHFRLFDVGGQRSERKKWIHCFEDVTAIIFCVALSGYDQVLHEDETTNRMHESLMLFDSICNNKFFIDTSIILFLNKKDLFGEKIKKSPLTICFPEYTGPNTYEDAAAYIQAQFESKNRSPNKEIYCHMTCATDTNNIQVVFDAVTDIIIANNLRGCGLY
Insulin prom inh: TRM-6 insulin promoter activity inhibition. TRM-6 cells (human fetal islet line), insulin promoter-eGFP reporter, imaging; reporter expression induced with tamoxifen. actives 0.9% (n = 130,000). inhibition, % at 2 µM. AID 1273;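 active means inhibition above the mean plus 3 SD, with well images judged a real hit on visual review, cut at about 60% in these data, passing the limit was not always enough; inconclusive means inhibition over the cutoff but images rejected on review; inactive means inhibition not above the cutoff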
Insulin prom inh cell count: further read-out of Insulin prom inh, marked with its call; normalized cell count, %; measured here: cell count, toxicity; reference of the scale not given here;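 cells exposed to compound for 48 h; stained nuclei by imaging scaled within each plate; lower means fewer cells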
HSV augment primary fold: further read-out of HSV augment, marked with its call; fold increase; compound at 10 µM; measured here: primary screen fold increase 10 uM; tested in PC3 cells;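 GFP signal in the first replicate; 1 = infected wells without compound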
* = called active by the depositor; i = inactive; u = inconclusive; x = not tested or not shown.

SMILES | PKD1 inh | HSV augment | HSV augment primary fold | GALR2 agonist | RGS16-Gao HTS | Insulin prom inh | Insulin prom inh cell count
CCc1c(C)c(C#N)c2nc3ccccc3n2c1Nc1c(C)n(C)n(-c2ccccc2)c1=O | 0.7 | i | 0.88 | 0.1 | 105.0 | -16.7 | 100.0
CCCCOC(=O)c1cc(Cl)c(O)c(OC)c1 | x | i | 0.92 | x | 137.9 | x | x
CCOc1cccc(C(=O)NCc2ccccc2)c1 | 2.4 | i | 1.06 | x | 104.6 | 20.0 | 78.7
CC(C)CCNC(=O)CN(C(=O)Cn1nnc(-c2ccc(F)cc2)n1)C1CCCC1 | -5.0 | i | 1.13 | -0.6 | 101.7 | x | x
O=C(NCCNC(=O)c1ccco1)c1ccc(F)cc1 | -6.6 | i | 1 | x | 109.8 | -17.9 | 107.4
O=C1c2ccccc2C(=O)N1CC1c2ccccc2CCN1S(=O)(=O)c1ccccc1 (stereo unspecified) | -2.2 | i | 0.91 | -2.7 | 96.7 | x | x
Cc1cccn2cc(CSc3ccccc3N)nc12 | -6.1 | i | 1.17 | -1.7 | 95.8 | 7.1 | 170.6
Cc1nccn1-c1ncnc2sc3c(c12)CCCC3 | 6.3 | i | 0.97 | -3.4 | 103.3 | x | x
Cc1ccc2cc(C)c(N3CCN(c4ccccn4)CC3)nc2c1 | 6.4 | i | 0.97 | -2.5 | 102.8 | 38.5 | 120.0
O=C(Nc1ccccc1)Nc1sccc1-c1nc2ccccc2s1 | x | i | 1.2 | x | 102.9 | x | x
COc1ccc2c(c1)[nH]c1c(=O)n(Cc3ccccn3)cnc12 | 1.8 | i | 0.8 | -3.5 | 105.0 | 21.9 | 127.6
COc1ccc([N+](=O)[O-])cc1NC(=O)CSc1ccccc1 | -22.5 | i | 0.8 | -1.7 | 97.3 | -8.3 | 85.6
CCC(=O)Oc1ccc(C(=O)Nc2cccc(C(=O)NCC(C)C)c2)cc1 | -0.4 | i | 0.94 | x | 92.5 | x | x
Fc1ccc(CNC(=S)Nc2cccc(C(F)(F)F)c2)cc1 | -11.1 | i | 1.06 | -1.6 | 104.7 | x | x
C#CCSc1nnnn1-c1cccc(Cl)c1 | x | i | 1.36 | x | 89.0 | x | x
FC(F)(F)c1ccccc1NC(=S)N1CCN(c2ccccn2)CC1 | -7.3 | i | 0.94 | x | 108.5 | x | x
O=C(c1ccccc1)N(Cc1cccnc1)C1(C(=O)Nc2ccccc2)CCCCC1 | 4.2 | i | 0.95 | -1.1 | 101.0 | -60.0 | 94.0
COc1ccc(NC(=O)N(Cc2cccnc2)Cc2ccccc2Cl)c(OC)c1 | 3.9 | i | 0.84 | -1.9 | x | x | x
O=C(CSc1nnc(-c2cccnc2)o1)NNC(=O)c1ccc(Br)cc1 | x | i | 1.07 | x | 107.9 | x | x
CCCCNS(=O)(=O)c1ccc(NC(=O)c2cccs2)cc1 | -3.1 | i | 0.92 | x | 101.5 | 14.3 | 121.7
CCN(CC)C(=O)CC(c1ccc(N(C)C)cc1)c1c(OC)cc(OC)c2ccc(=O)oc12 (stereo unspecified) | x | i | 0.94 | x | 85.8 | x | x
Cc1cccc(N2CCN(C(=O)CCNC(=O)Cn3ccc4ccccc4c3=O)CC2)c1C | -2.9 | i | 0.93 | -0.1 | 95.3 | 20.0 | 83.6
O=C(/C(=C/c1ccc(Cl)cc1)c1nc2ccccc2[nH]1)c1cccs1 | -1.9 | i | 0.93 | -3.2 | 103.1 | 48.6 | 147.7
O=C(CSC1=NC2(CCCCC2)N=C1c1ccccc1)Nc1ccc2c(c1)OCCO2 | -4.6 | x | x | -0.5 | 115.6 | 2.4 | 100.0
COCCn1c(C)cc(/C=C2/NC(=O)N(Cc3ccc(C)cc3)C2=O)c1C | x | i | 1.04 | x | 97.2 | x | x

Further entries follow.
SMILES | PKD1 inh | HSV augment | HSV augment primary fold | GALR2 agonist | RGS16-Gao HTS | Insulin prom inh | Insulin prom inh cell count
COC(=O)Nc1ccc(S(=O)(=O)NC2CCS(=O)(=O)C2)cc1 (stereo unspecified) | x | i | 0.99 | x | 100.6 | x | x
O=C1NC(=S)N(C(=O)c2ccc(F)cc2)/C1=C/c1ccccc1 | -3.8 | u | x | -0.6 | 99.8 | x | x
CCOC(=O)c1c(NC(=O)c2ccccc2)sc2c1CCc1ccccc1-2 | 3.3 | i | 1.06 | -2.9 | 92.9 | 42.9 | 101.1
Cc1cc(Nc2cccc(C)c2C)n2nc(C)nc2n1 | -6.7 | x | x | -0.3 | 183.4 | -10.0 | 73.0
COc1ccc(-c2ccc3c(N)c(C(=O)c4cccc(OC)c4)sc3n2)cc1 | -2.3 | u | x | -2.7 | 97.9 | -66.7 | 144.6
Cn1c(N)c(C(=O)COC(=O)CSc2cccc3cccc(Cl)c23)c(=O)n(C)c1=O | -0.1 | i | 0.8 | x | 93.1 | -35.0 | 166.9
COc1ccc(C(=O)Nc2ccc3oc(-c4cccc(F)c4)nc3c2)cc1OC | -9.7 | x | x | x | 97.8 | x | x
Cc1ccccc1-c1nnc(NC(=O)c2ccc(N3C(=O)CCC3=O)cc2)s1 | -11.6 | x | x | 0.3 | 106.9 | 10.0 | 39.2
COc1ccc2cc3c(N)nn(C(=O)c4ccc(Cl)c([N+](=O)[O-])c4)c3nc2c1 | -2.5 | i | 1 | -0.5 | 64.3 | 50.0 | 94.4
COC(=O)c1ccccc1NC(=O)CSc1nc2c(c(=O)n(C)c(=O)n2C)n1C | -19.2 | x | x | -1.9 | x | x | x
CCOC(=O)C1CCCN(C(=O)c2cccs2)C1 (stereo unspecified) | -5.3 | i | 1.03 | -0.6 | 101.4 | -168.8 | 46.3
Cc1cc(N2C(=O)NC(=O)CC2C)c(C)cc1C(C)C (stereo unspecified) | 7.5 | i | 1.02 | -0.4 | 100.0 | -25.0 | 88.6
Cc1ccc2c(C)nc(Nc3nc(CSc4nc5ccccc5[nH]4)cc(=O)[nH]3)nc2c1 | -1.2 | i | 0.9 | -0.4 | 104.6 | 13.3 | 123.7
COc1ccc(-c2noc(C3CCCN(C(=O)Nc4ccccc4F)C3)n2)cc1 (stereo unspecified) | 1.7 | i | 1.06 | x | 110.6 | x | x
O=c1c(=O)n2c(nn1Cc1ccc(F)cc1)sc1ccccc12 | x | i | 1.11 | x | 100.1 | x | x
COc1ccccc1NC(=O)CSc1nnc(-c2ccncc2)o1 | -7.0 | i | 0.99 | -1.7 | 104.4 | 6.9 | 93.0
CC(C)CCNc1nc(-c2ccco2)c2c(c1C#N)CCCC2 | 4.5 | i | 1.01 | 9.6 | 106.0 | -37.9 | 90.7
COc1ccc(CCNC(=O)c2cccc(S(=O)(=O)N3CCCCC3)c2)cc1 | -8.1 | i | 1.01 | x | 102.4 | x | x
Cc1cc(C)c(-c2csc(NC(=O)c3n[nH]c(=O)c4ccccc34)n2)c(C)c1 | 0.1 | i | 1.08 | 0.6 | 94.8 | x | x
Cc1ccc(S(=O)(=O)N/N=C\c2ccccc2OCc2ccccc2)cc1 | 0.1 | i | 0.72 | -1.4 | 60.1 | -6.8 | 87.5
Cc1ccc(C23CC4CC(CC(CN)(C4)C2)C3)cc1 | 3.8 | i | 0.74 | x | 106.2 | x | x
CN(C(=O)COC(=O)COc1ccc(Cl)cc1)C1CCCCC1 | -14.5 | i | 0.97 | -0.8 | 94.8 | -30.8 | 87.5
CC(=O)Nc1ccc(-c2nnc(SCc3ccc(C)cc3)n2C)cc1 | -5.3 | i | 0.97 | -1.2 | 104.6 | 6.7 | 109.7
COc1ccc2oc(=O)c(-c3ccccc3C(=O)N3CCOCC3)cc2c1 | -8.2 | i | 1.04 | -0.9 | 102.8 | -32.1 | 66.0
Cn1ccnc1C(=O)c1cc(SCC(=O)NC2CC2)nc2ccccc12 | 9.7 | i | 0.96 | x | 101.6 | x | x

The list goes on.
SMILES | PKD1 inh | HSV augment | HSV augment primary fold | GALR2 agonist | RGS16-Gao HTS | Insulin prom inh | Insulin prom inh cell count
COc1ccc2nc(SCCOC(=O)Nc3ccc(Cl)cc3)nc(C)c2c1 | -12.5 | i | 0.96 | -0.7 | 102.8 | x | x
CCOc1cc(S(=O)(=O)N2CCN(CC)CC2)ccc1Cl | 3.5 | i | 0.96 | -2.7 | 106.6 | 19.1 | 85.5
O=c1[nH]c2ccc(Cl)cc2c(=O)n1Cc1ccco1 | -6.5 | i | 0.97 | 0.2 | 111.2 | -23.7 | 148.9
CCc1ccc(NC(=O)C2CCN(S(=O)(=O)c3c(C)[nH]c(=O)[nH]c3=O)CC2)cc1 | 0.1 | x | x | 0.8 | 91.6 | 11.4 | 82.2
COc1ccccc1C(=O)N(CCN(C)C)c1nc2cc(C)cc(C)c2s1 | -9.2 | i | 1 | x | 93.0 | 0.0 | 98.6
COc1ccc(-c2cc3nc(C)cc(NCCO)n3n2)cc1 | -1.8 | i | 0.96 | 1.1 | 111.5 | x | x
NS(=O)(=O)c1ccc(Sc2nc3ccccc3s2)c([N+](=O)[O-])c1 | x | i | 0.54 | x | 98.6 | x | x
Cc1ccc([N+](=O)[O-])c(OCCn2cnc3ccccc32)c1 | 1.2 | i | 0.93 | x | 103.3 | x | x
COc1ccc(NC(=O)CN2CCN(c3ccccc3Cl)CC2)cc1 | 3.1 | i | 0.87 | -1.3 | 98.0 | -362.5 | 84.2
C=CCOn1c(=O)c(-c2ccc(OC)cc2)[n+]([O-])c2ccccc21 | 15.5 | i | 1.01 | -2.3 | 100.4 | x | x
Cc1ccc(C)c(-n2c3nc(=O)[nH]c(=O)c-3cc3cc([N+](=O)[O-])ccc32)c1 | 0.0 | i | 0.86 | 1.8 | 89.7 | 3.5 | 66.5
CSc1nc(-c2ccccc2)nn1C(=O)c1ccco1 | 6.2 | i | 0.98 | 0.5 | 101.0 | 39.5 | 73.4
O=C(CN1CCN(C/C=C/c2ccccc2)CC1)Nc1cc([N+](=O)[O-])ccc1Cl | -12.2 | i | 0.85 | -1.2 | 108.1 | -8.1 | 68.2

Ordered by number of heavy atoms (lowest first): 5 of the compounds above.
SMILES | PKD1 inh | HSV augment | HSV augment primary fold | GALR2 agonist | RGS16-Gao HTS | Insulin prom inh | Insulin prom inh cell count
CSc1nc(-c2ccccc2)nn1C(=O)c1ccco1 | 6.2 | i | 0.98 | 0.5 | 101.0 | 39.5 | 73.4
COc1ccc(-c2cc3nc(C)cc(NCCO)n3n2)cc1 | -1.8 | i | 0.96 | 1.1 | 111.5 | x | x
COc1ccc(NC(=O)CN2CCN(c3ccccc3Cl)CC2)cc1 | 3.1 | i | 0.87 | -1.3 | 98.0 | -362.5 | 84.2
COc1ccccc1C(=O)N(CCN(C)C)c1nc2cc(C)cc(C)c2s1 | -9.2 | i | 1 | x | 93.0 | 0.0 | 98.6
CCc1ccc(NC(=O)C2CCN(S(=O)(=O)c3c(C)[nH]c(=O)[nH]c3=O)CC2)cc1 | 0.1 | x | x | 0.8 | 91.6 | 11.4 | 82.2

Structures from the list above that contain a nitro group on carbon, in the order listed:
SMILES | PKD1 inh | HSV augment | HSV augment primary fold | GALR2 agonist | RGS16-Gao HTS | Insulin prom inh | Insulin prom inh cell count
COc1ccc([N+](=O)[O-])cc1NC(=O)CSc1ccccc1 | -22.5 | i | 0.8 | -1.7 | 97.3 | -8.3 | 85.6
COc1ccc2cc3c(N)nn(C(=O)c4ccc(Cl)c([N+](=O)[O-])c4)c3nc2c1 | -2.5 | i | 1 | -0.5 | 64.3 | 50.0 | 94.4
NS(=O)(=O)c1ccc(Sc2nc3ccccc3s2)c([N+](=O)[O-])c1 | x | i | 0.54 | x | 98.6 | x | x
Cc1ccc([N+](=O)[O-])c(OCCn2cnc3ccccc32)c1 | 1.2 | i | 0.93 | x | 103.3 | x | x
Cc1ccc(C)c(-n2c3nc(=O)[nH]c(=O)c-3cc3cc([N+](=O)[O-])ccc32)c1 | 0.0 | i | 0.86 | 1.8 | 89.7 | 3.5 | 66.5
O=C(CN1CCN(C/C=C/c2ccccc2)CC1)Nc1cc([N+](=O)[O-])ccc1Cl | -12.2 | i | 0.85 | -1.2 | 108.1 | -8.1 | 68.2
